Compound activity (PubChem)
MARV entry inh = blocks Marburg virus binding to or entry into cells; Marburg virus pseudotyped entry inhibition, cell reporter; control for the full effect not named in the record; about a third of the inactives were read at about 46 µM; Potency, µM (series often up to 37.8 µM), without a hit: at the top dose activity change, negative = inhibition, actives largely listed as inhibitors; 300,000 compounds, 1.8% hits; AID 540276; active = well fitted inhibition curve with a large enough effect; inconclusive = small, poorly fitted or top-dose-only effect, or effect the other way; inactive = flat fitted curve, though single readings scatter; tested in HEK293 cells; about a fifth of its hits are not listed in these tables; also: % is scaled to controls: 0 for no effect and ±100 for the full control effect; luciferase read-out
Lassa entry inh = blocks Lassa virus binding to or entry into cells. Potency, µM (series often up to 37.9 µM), for the others: at the top dose activity change, negative = inhibition, most hits filed as inhibitors. Lassa virus pseudotype entry inhibition, cell reporter; control for the full effect not named in the record. 300,000 compounds, 1.2% hits; active means well fitted inhibition curve with a large enough effect; inconclusive means small, poorly fitted or top-dose-only effect, or effect the other way; inactive means flat fitted curve, though single readings scatter; tested in HEK293 cells; also: % is scaled to controls: 0 for no effect and ±100 for the full control effect; nearly all actives have a fitted effect of over 50% in size; luciferase read-out
Cruzain inh Det = cruzain (T. cruzi) inhibition with detergent. P25779. purified cruzain, Z-FR-AMC fluorescence, 0.01% Triton. Potency, µM, inactives show max response, negative = inhibition, actives largely listed as inhibitors. 200,000 compounds, 0.43% hits; active = well fitted curve in the direction sought with a large enough effect; inconclusive = small, poorly fitted or top-dose-only effect, or another doubt; inactive = no such curve, though single readings can be large; an effect the other way counts as inactive or inconclusive;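 also: plate controls were neutral wells for no effect and buffer without enzyme for full effect; nearly all actives have a fitted effect of over 40% in size; top concentration of the series not given in the record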
Target sequence (P25779 123-467 limits assumed): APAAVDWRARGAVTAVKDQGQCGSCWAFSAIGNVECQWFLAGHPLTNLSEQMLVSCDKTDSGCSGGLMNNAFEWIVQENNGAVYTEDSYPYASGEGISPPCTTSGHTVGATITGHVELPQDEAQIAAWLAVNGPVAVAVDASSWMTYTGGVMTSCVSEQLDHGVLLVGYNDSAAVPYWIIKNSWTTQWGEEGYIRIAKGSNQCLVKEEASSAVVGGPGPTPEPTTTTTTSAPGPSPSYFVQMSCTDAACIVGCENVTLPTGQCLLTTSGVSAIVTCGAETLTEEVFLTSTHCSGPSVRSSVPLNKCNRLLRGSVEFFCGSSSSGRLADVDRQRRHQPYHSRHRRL
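Enzyme 1.5 nM, Z-FR-AMC 2 uM, NaOAc 100 mM pH 5.5, DTT 5 mM, Triton X-100 0.01%; 15 min RT compound preincubation; kinetic ex360/em450, 60 s delta.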
RE007 growth inh = less growth of the S. pombe RE007 Vpr strain; Potency, µM (titrated, usually from 92.2 µM), inactives show at the highest dose activity change, negative = less growth; 360,000 compounds, 0.21% hits; S. pombe RE007 Vpr strain, BacTiter-Glo ATP luminescence, 24 h; control for the full effect not named in the record; active = well fitted falling curve with a large enough effect; inconclusive = small, poorly fitted or top-dose-only effect; inactive = no such curve, though single readings can be large or run the other way;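 also: % is scaled to controls: 0 for no effect and ±100 for the full control effect; nearly all actives have a fitted effect of over 50% in size; the assay follows cell death caused by Vpr and the record does not say whether a fall means rescue or toxicity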
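Fission yeast strain RE007, carrying one chromosomally integrated HIV-1 vpr copy, was seeded at OD 0.01 in PMG+AL medium with 23 nL pinned compound. After 24 h at 30 °C and 99% humidity, viability was read by BacTiter-Glo luminescence.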
Cruzain inh noDet = blocks cruzain activity in detergent-free assay; purified cruzain, Z-FR-AMC fluorescence, no detergent; Potency, µM, without a hit: max response, negative = inhibition, usual class: inhibitors; 200,000 compounds, 2.3% hits; AID 1476; active = well fitted curve in the direction sought with a large enough effect; inconclusive = small, poorly fitted or top-dose-only effect, or another doubt; inactive = no such curve, though single readings can be large; an effect the other way counts as inactive or inconclusive;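 also: plate controls were enzyme without inhibitor for no effect and buffer without enzyme for full effect; nearly all actives have a fitted effect of over 40% in size; top concentration of the series not given in the record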
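Purified cruzain at 1.5 nM, pre-incubated 15 min with compound at room temperature in 100 mM sodium acetate pH 5.5, 5 mM DTT, 0.00005% Triton X-100. Reaction started with 2 uM Z-FR-AMC; AMC fluorescence increase over 60 s gives rate.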
SARS PLP yeast = SARS-CoV PLP inhibition in yeast; S. cerevisiae expressing SARS-CoV PLpro, growth rescue; control for the full effect not named in the record; Potency, µM (titrated, usually from 32.9 µM), inactives show at the top dose activity, positive = growth rescue; 330,000 compounds, 0.19% hits; AID 485353; also: 0% is about no effect; nearly all actives have a fitted effect of over 55% in size; growth read by luminescence after 48 h
NS1 inh = blocks influenza NS1 protein function; Potency, µM (highest dose often 46.1 µM), for the others: at the highest dose activity, positive = more growth; 270,000 compounds, 0.4% hits; S. cerevisiae slowed by influenza A NS1, growth recovery by OD600; also: actives are rising curves; nearly all actives have a fitted effect of over 50% in size
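A cell-based growth assay was used: compounds that relieve NS1-induced slow growth of budding yeast raise OD600. Assay medium was yeast nitrogen base with ammonium sulphate and -URA supplement, pH 6.0, with 2% galactose.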
StopGo reporter = lowers the luciferase signal of an FMDV 2A StopGo reporter; AID 1159524; 410,000 compounds, 1.2% hits; human cells with a luciferase reporter of 2A StopGo recoding; control for the full effect not named in the record; Potency, µM (doses to about 57.9 µM), inactives show at the top dose signal change, negative = less light; active = well fitted falling curve with a large enough effect; inconclusive = small, poorly fitted or top-dose-only effect; inactive = no such curve, though single readings can be large or run the other way; tested in HEK293T cells; also: % is scaled to controls: 0 for no effect and ±100 for the full control effect; nearly all actives have a fitted effect of over 45% in size; luciferase light after 4 h
Numbers without * were called inactive; ? = inconclusive; . = no result given; & = joins results of further samples; [ ] = another dose, or the depositor's remark. Unless noted, calls follow the shape of the dose curve; as a rule, active means well fitted rising curve with a large enough effect; inconclusive means small, poorly fitted or top-dose-only effect; inactive means no such curve, though single readings can be large or run the other way. Potency is read from the fitted curve at half-maximal effect. Rows were taken by chance; any-hit rate near 4.8%.

item	Structure	MARV entry inh	Lassa entry inh	Cruzain inh Det	RE007 growth inh
1	CC(C)(C)C(=O)Cn1nnc(-c2ccc(C(F)(F)F)cc2)n1	.	.	.	?
2	CCCCCCCCCCS(=O)(=O)N/N=C/c1ccc(O)cc1	10%	-21%	-16%	-6%
3	Cc1onc(-c2ccccc2)c1-c1nnc(-c2ccccc2C(F)(F)F)o1	?	-26%[46.1 µM]	.	-14%
4	O=C(CSc1ncccn1)Nc1cccc2ccccc12	5%[46.1 µM]	5%[46.1 µM]	.	9%
5	CCOCCOC(=O)c1ccc(NC(=O)c2cc(OC)c(OC)c(OC)c2Br)cc1	-15%	-8%	-6.4%	6%
6	CCOc1ccc(C(C)=O)cc1CN1C(=O)NC2(CCCCC2C)C1=O (stereo not given)	-18%[46.1 µM]	-7%	1.8%	5%
7	O=C(Cc1csc(Nc2nc(=S)[nH]c3ccccc23)n1)NCc1ccccc1Cl	?	?	3.1%	10%
8	CC1CCCC(NC(=O)COC(=O)c2ccc(S(=O)(=O)N3CCOCC3)cc2)C1C (stereo not given)	0%[46.1 µM]	14%	-1.5%	8%
9	CCC(C)(C)NC(=O)/C=C/c1ccc(OC)c(S(=O)(=O)N2CCOCC2)c1	-25%	1%	-0.7%	4%
10	O=C(COC(=O)CCCOc1ccccc1)NNC(=O)c1ccc([N+](=O)[O-])cc1	16%	15%	.	?

item	Cruzain inh noDet	SARS PLP yeast	NS1 inh	StopGo reporter
1	.	-1%	7%	-15%
2	3%	-13%	1%	-26%
3	.	-2%	0%	?
4	.	-1%	-17%	14%
5	19%	20%	15%	0%
6	-4%	4%	-3%	-20%
7	?	-3%	25%	0%
8	-14%	4%	-7%	0%
9	10%	1%	-4%	5%
10	.	-6%	-3%	-20%

Ordered by SMILES length (highest first): three of the compounds above
item	Structure	MARV entry inh	Lassa entry inh	Cruzain inh Det	RE007 growth inh
10	O=C(COC(=O)CCCOc1ccccc1)NNC(=O)c1ccc([N+](=O)[O-])cc1	16%	15%	.	?
5	CCOCCOC(=O)c1ccc(NC(=O)c2cc(OC)c(OC)c(OC)c2Br)cc1	-15%	-8%	-6.4%	6%
3	Cc1onc(-c2ccccc2)c1-c1nnc(-c2ccccc2C(F)(F)F)o1	?	-26%[46.1 µM]	.	-14%

item	Cruzain inh noDet	SARS PLP yeast	NS1 inh	StopGo reporter
10	.	-6%	-3%	-20%
5	19%	20%	15%	0%
3	.	-2%	0%	?

Going on with the list:
item	Structure	MARV entry inh	Lassa entry inh	Cruzain inh Det	RE007 growth inh
11	CCC(C(=O)N1CCOCC1)n1c(C(=O)OC)cc2occc21 (stereo not given)	-6%	3%	4.8%	-3%
12	COC(=O)Nc1ccc(S(=O)(=O)N(C)CC(F)(F)C(F)F)cc1	-8%	-1%	-1.6%	-1%
13	CCC(C)(c1ccc(C(=O)OC)s1)c1ccc(C(=O)OC)s1	-18%	?	-1.7%	2%
14	CC(=O)Nc1ccc(S(=O)(=O)N2CCN(Cc3cccnc3)CC2)cc1	-4%	10%	0.6%	-5%
15	Cc1ccn2cc(CNS(=O)(=O)c3ccc(Cl)s3)nc2c1	.	.	1.9%	-6%
16	CCOC(=O)C1CCCN(C(=O)c2cc3c(Cl)nc4ccccc4c3s2)C1 (stereo not given)	8%[46.1 µM]	9%[46.1 µM]	-3.6%	.
17	CCN(CC)CCN(C(=O)c1ccc(S(=O)(=O)N2CCCC2)cc1)c1nc2cc(C)cc(C)c2s1	?	-12%[46.1 µM]	.	-13%
18	CCCNC(=O)Cn1c(=O)/c(=C\c2ccc(-c3cccc([N+](=O)[O-])c3)o2)s/c1=C\C(=O)C(C)(C)C	12%	-8%	-8.0%	7%
19	Cc1ccc(NS(=O)(=O)c2cccc(C(=O)NCC3(N(C)C)CCCCC3)c2)cc1	.	.	.	-5%
20	Fc1ccc(-c2nnc(CN3CCN(c4ccccn4)CC3)o2)cc1	20%[46.1 µM]	?	-1.1%	.

item	Cruzain inh noDet	SARS PLP yeast	NS1 inh	StopGo reporter
11	-7%	4%	-12%	3%
12	3%	0%	-9%	-11%
13	12%	-3%	-6%	?
14	11%	1%	1%	-22%
15	-20%	4%	-94%	-13%
16	-6%	.	.	?
17	.	2%	-2%	-6%
18	?	4%	6%	-20%
19	.	-3%	-2%	14%
20	2%	.	.	-7%

The closing 2 records of the part above open the next one:
item	Structure	MARV entry inh	Lassa entry inh	Cruzain inh Det	RE007 growth inh
19	Cc1ccc(NS(=O)(=O)c2cccc(C(=O)NCC3(N(C)C)CCCCC3)c2)cc1	.	.	.	-5%
20	Fc1ccc(-c2nnc(CN3CCN(c4ccccn4)CC3)o2)cc1	20%[46.1 µM]	?	-1.1%	.
21	Cc1ccc(OCC(=O)N(Cc2ccco2)C2CCS(=O)(=O)C2)cc1 (stereo not given)	-10%&-15%[46.1 µM]	?	-0.4%	8%
22	O=C(CCC(=O)Nc1ccc(F)cc1)N/N=C/c1ccncc1	17%[46.1 µM]	-2%	.	-7%
23	CCc1nnc(NC(=O)C2(C)COC(c3ccccc3)OC2)s1 (stereo not given)	26%[46.1 µM]	22%	.	3%
24	COc1cccc(-n2c(Cc3cc(=O)[nH]c(=O)[nH]3)nnc2SCC(=O)N2CCCCCC2)c1	.	.	-2.3%	3%
25	CC(=O)Nc1ccc2cc3ccc(NC(C)=O)cc3nc2c1	.	.	.	7%
26	Nc1nnnn1/N=C/c1cc([N+](=O)[O-])ccc1O	.	.	.	-7%
27	CCOc1ccc(C(=O)N2CCN(CCc3ccccn3)CC2)cc1	7%[46.1 µM]	1%[46.1 µM]	0.0%	.
28	c1ccc(Cc2ccc(OCCn3cncn3)cc2)cc1	-2%	1%	1.0%	-14%
29	O=C(Cc1cccs1)NCc1cccc(Cl)c1	.	.	.	3%
30	Cc1ccc(C)c(OCC(=O)Nc2ccc(S(=O)(=O)N3CCN(C)CC3)cc2)c1	-9%[46.1 µM]	-16%	-4.8%	10%

item	Cruzain inh noDet	SARS PLP yeast	NS1 inh	StopGo reporter
19	.	-3%	-2%	14%
20	2%	.	.	-7%
21	-5%	0%	0%	-4%&-17%
22	.	3%	.	5%
23	.	1%	.	5%
24	-9%	-1%	2%	-19%
25	.	0%	8%	57%[activator]
26	.	-5%	-70%	5%
27	-3%	.	.	-7%
28	5%	-7%	-2%	-18%
29	.	1%	0%	53%[activator]
30	4%	17%	2%	-18%

item	Structure	MARV entry inh	Lassa entry inh	Cruzain inh Det	RE007 growth inh
31	Cc1ccc(-c2csc3ncnc(-n4nnc5ccccc54)c23)cc1	-23%	-26%	-3.8%	-9%
32	COc1cc2c(cc1OC)-c1n[nH]c(=S)n1C(C)(C)C2	13%[14.2 µM]	20%	.	4%
33	CCOc1ccccc1C(=O)N1CCN(c2cccc(Cl)c2)CC1	?	?	-0.6%	-1%
34	CCOc1ccc(C(=O)N(Cc2nc(-c3cccc(C)c3)no2)C(C)C)cc1	-10%[46.1 µM]	?	4.2%	.
35	CCC(=O)Nc1ccc2c(c1)ncn2-c1ccc(C)cc1	-22%	-30%	.	26%
36	CC(=O)c1cn(CC(=O)NCc2ccc3c(c2)OCO3)c2ccccc12	?	-14%	1.1%	-11%
37	Cc1ccc(C2C=C(c3ccc(Cl)cc3)Nc3nc(NC(=O)CCC(=O)O)nn32)cc1 (stereo not given)	.	2%[46.1 µM]	0.9%	.
38	COc1ccc(C2=NS(=O)(=O)N(C)C(C(=O)NC3CCCCC3)=C2)cc1OC	.	.	.	2%
39	Cc1ccc2c(c1)N(CC(=O)NCCCN1CCCC1)C(=O)CO2	2%[46.1 µM]	2%	.	1%
40	C#CCOCCOCCOCCNc1nc(N2CCN(C(=O)Cn3cc(CCCCN)nn3)CC2)nc(N2CCN(C(=O)[C@H](C)n3cc(CCCN=C(N)N)nn3)CC2)n1	14%	3%	-7.5%	.

item	Cruzain inh noDet	SARS PLP yeast	NS1 inh	StopGo reporter
31	13%	1%	-13%	?
32	.	1%	.	-10%
33	-6%	-6%	-37%	-19%
34	26%	.	.	-15%
35	.	0%	.	70%[activator]
36	?	?	-3%	?
37	-6%	.	.	-11%
38	.	1%	-1%	-24%
39	.	6%	2%	-4%
40	1%	-9%	-22%	.

item	Structure	MARV entry inh	Lassa entry inh	Cruzain inh Det	RE007 growth inh
41	CCOC(=O)c1c(C)[nH]c(C(=O)Nc2ccc(NC(C)=O)cc2)c1C	?	-3%	.	-18%
42	Cc1ccc(N=C2NC(=O)CS2)cc1C	.	.	.	0%
43	COc1cc(C(=O)NC(=S)NC(C)C)cc(OC)c1OC	4%	-18%	-3.9%	-2%
44	O=c1[nH]c(C2CCN(S(=O)(=O)c3ccc(F)cc3)CC2)nc2c1nnn2Cc1ccc2c(c1)OCCO2	.	.	.	8%
45	Cn1nnnc1-c1cc(Cl)cc(Cl)c1	6%[46.1 µM]	8%	.	10%
46	COc1cccc(CNS(=O)(=O)c2ccc(-n3cnnn3)c(C)c2)c1	-2%[46.1 µM]	-28%	.	-6%
47	CC(=O)c1sc(NC(=O)C(C)C)nc1C	?	0%	-0.7%	-5%
48	CCc1ccc(NC2CC(=O)N(c3ccc(OC)cc3OC)C2=O)cc1 (stereo not given)	22%	6%	3.0%	-11%

item	Cruzain inh noDet	SARS PLP yeast	NS1 inh	StopGo reporter
41	.	-1%	.	-17%
42	.	4%	-10%	-3%
43	3%	27%	-10%	-7%
44	.	1%	20%	-8%
45	.	-3%	4%	-9%
46	.	0%	1%	60%[activator]
47	13%	2%	11%	-6%
48	0%	-1%	-34%	.
